Assay outcomes: PubChem, ICCB-Longwood Screening Facility, Harvard Medical School
AID504770 = E. coli YBA685 growth inhibition, screen for V. cholerae RctB inhibitors. E. coli YBA685 rctB-dependent plasmid, OD600 growth, 3 h; stronger effect = lower value. z-score (no concentration beside the values). 0.27% of 130,000 active. AID 504770;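 active = z-score under -2 on both plates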;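 note: wells of about 30 µL received 100 nL stock; score is relative to mean and SD of the test wells; the first replicate is given; strong numbers were not always called active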
Ba CapD inh = CapD enzyme inhibition; 0.23% of 140,000 active; AID 492967; z-score (test concentration not listed); purified CapD enzyme, fluorescence intensity read-out; stronger effect = lower value; some hits fall short of the stated cut;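 active = z-score under -4 in either of two replicates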;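 note: stock transfer was 100 nL into about 40 µL; score is relative to mean and spread of the plate; one replicate is shown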
Numbers without * were called inactive; x = no result given; & = joins results of further samples. The order is random; overall some 0.41% were active at least once.

Sample of the layout, two compounds:
SMILES | AID504770 | Ba CapD inh
CCOC(=O)Cn1nc(NC(=O)c2ccc(C(=O)OC)cc2)cc1C | 0.25 | 0.41
CN(C)C(=S)Nc1cccc2ccccc12 | -0.05 | 0.55

Main list, repeating the preview:
SMILES | AID504770 | Ba CapD inh
CCOC(=O)Cn1nc(NC(=O)c2ccc(C(=O)OC)cc2)cc1C | 0.25 | 0.41
CN(C)C(=S)Nc1cccc2ccccc12 | -0.05 | 0.55
O=C(NCC1CCCO1)c1cc2c(s1)CCC2 (centres undefined) | 1.3 | -0.34
Cc1cc(S(=O)(=O)NCc2ccc(S(N)(=O)=O)cc2)c(C)s1 | 0.25 | 0.81
CCOc1nc(NC(=O)NC(=O)c2c(F)cccc2F)nc(-c2ccccc2)n1 | 0.2 | 0.25
COc1ccc2c(C#N)c3ccccn3c2c1 | -0.25 | -0.69
Cc1c(C(=O)c2ccccc2)c(=O)n(C)c(=O)n1C | -0.25 | x
COc1cc(C2C(C(=O)OCCc3ccccc3)=C(C)NC3=C2C(=O)CC(C)(C)C3)cc(OC)c1OC (centres undefined) | x | 0.9
CCOC(=O)c1c(C=O)oc2c(C)cc(OC(=O)c3ccccc3Cl)c(Br)c12 | x | -1
COC(=O)c1ccccc1NC(=O)Cn1cc2c(n1)CCCC2 | -1 | 6.4
CC1(C)Cc2ccccc2C(N/N=C/c2ccco2)=N1 | 0.1 | x
Cn1nc(-c2ccccc2)c(COC(=O)c2ccc(Cl)cc2Cl)c1Cl | x | -0.23
COC(=O)c1ccc2c(=O)n(NC(C)=O)c(=S)[nH]c2c1 | -0.4 | 0.84
O=C(CNS(=O)(=O)c1cccc2nsnc12)NNC(=O)OCCc1ccccc1C(F)(F)F | x | -0.55
C/C=C/C(=O)Nc1ccccc1OC | -0.4 | -0.18
Cn1c2ccc(F)cc2c2nc3n(c(=O)c21)CCS3 | 1.6 | x
CCCn1c(SCC(=O)OC(C)(C)C)n[nH]c1=O | 1.6 | x
COc1cc(/C=C2/SC(=NCc3ccccc3)N(Cc3ccccc3)C2=O)cc(OC)c1OC | 0.35 | 6.3
O=c1cc(-c2ccc(O)cc2)oc2c(C3O[C@H](CO)[C@@H](O)[C@H](O)[C@H]3O)c(O)cc(O)c12 (some centres undefined) | x | 8.4
CN1CCN(c2cc(Cl)nc(N)n2)CC1 | 0.4 | 1.5
COc1ccc(Cl)cc1NC(=O)Cn1ncc2ccccc21 | 0.05 | -1.4
O=C1c2ccccc2C(=O)N1CN1CCC(O)(c2ccc(Cl)cc2)CC1 | 0.05 | 0.01
O=c1cc(-c2ccncc2)c2ccc(OCc3ccccn3)cc2o1 | x | 12
COc1ccc(N2CCN(C(=O)OCC3CCN(Cc4cccc(OC)c4)CC3)CC2C)cc1 (centres undefined) | x | -0.98
CCOC(=O)c1ccc(N2C(=O)C(=O)/C(=C(/O)c3ccc(OC)cc3)C2c2ccc(C)cc2)cc1 (centres undefined) | x | -0.45
Later entries
SMILES | AID504770 | Ba CapD inh
COc1cc2c(cc1OC)C(C)N(C(=O)c1nn(C)c3c1CSc1ccccc1-3)CC2 (centres undefined) | -0.8 | -0.025
COc1ccccc1C1=NOC(C(=O)NC2CCCC2)C1 (centres undefined) | 1.9 | -0.28
CCOc1ccc(N(C)S(=O)(=O)c2ccc3[nH]cc(C(=O)NCCC4=CCCCC4)c(=O)c3c2)cc1 | x | 0.19
Nc1cccc2c1C(=O)N(CC(=O)NC13CC4CC(CC(C4)C1)C3)C2=O | 0.15 | x
CS(=O)(=O)c1cc(C#N)c(N2CCN(C(=O)CCC(=O)O)CC2)nc1-c1ccccc1 | x | -0.29
CCc1ccc(-c2nc(CSCC(=O)N3CCc4ccccc4C3)c(C)o2)cc1 | -0.25 | 0.5
CC1CCCN(C(=O)COC(=O)c2cc(S(=O)(=O)N3CCCC3)ccc2O)C1 (centres undefined) | -0.55 | x
CC(=O)N1CCC(O)(c2ccc3c(c2)OCO3)CC1 | -0.05 | x
Cc1ccc(CNC(=O)CCCn2c(=O)c3sccc3n(Cc3ccc(F)cc3Cl)c2=O)cc1 | 0.7 | 0.53
O=C(CS(=O)Cc1ccc(Cl)cc1)Nc1cccc(C(F)(F)F)c1 (centres undefined) | x | -0.17
CC1CCN(S(=O)(=O)c2ccc(Cl)cc2)CC1 | -1.1 | -0.45
CCn1c2ccccc2c2cc(C3C(C#N)=C(N)Oc4n[nH]c(C(C)C)c43)ccc21 (centres undefined) | 0.2 | x
Cc1cc(C)nc(NC(=S)c2ccc(NC(=O)/C=C/C(=O)O)cc2)n1 | -0.7 | 0.17
COCCCNC(=O)c1sc2ncnc(N3CCN(c4ccccn4)CC3)c2c1C | x | -0.57
COc1cc(OC)c(C2C(C#N)=C(N)Oc3n[nH]c(-c4cccc([N+](=O)[O-])c4)c32)c(OC)c1 (centres undefined) | x | -0.61
O=C(c1ccccc1)C(Sc1nc2ccccc2[nH]1)c1ccccc1 (centres undefined) | 0.35 | 0.015
CCOC(=O)COc1ccc2c(c1)OC(C)(C)CC2=O | x | 12
CS(=O)(=O)n1c(SCc2ccc(C(F)(F)F)cc2)nc2ccccc21 | x | -0.055
O=C(O)CSc1ccccc1Br | -1.2 | -0.68
CCC(=O)Nc1c(-c2ccccc2)c2cc(Br)ccc2[nH]c1=O | -0.25 | 1.6
C/C(=N\OC(=O)c1ccccc1)c1cc(-c2ccccc2)no1 | -0.55 | -0.055
CCN(CC)c1ccc(C(=O)c2ccc(N(CC)CC)cc2)cc1 | 0.55 | 3.4
COc1cccc2cc(-c3csc(NC(=O)CCC(=O)NC4CCC(C)CC4)n3)c(=O)oc12 (centres undefined) | x | 3.2
CSC(=CC(=O)c1nccs1)SC | -1 | -2.5
COc1cc(/C=C2/SC(=Nc3ccccc3C(F)(F)F)NC2=O)ccc1O | -0.75 | -0.51

Taken from the results shown (seven entries):
SMILES | AID504770 | Ba CapD inh
CCn1c2ccccc2c2cc(C3C(C#N)=C(N)Oc4n[nH]c(C(C)C)c43)ccc21 (centres undefined) | 0.2 | x
Cc1cc(C)nc(NC(=S)c2ccc(NC(=O)/C=C/C(=O)O)cc2)n1 | -0.7 | 0.17
COCCCNC(=O)c1sc2ncnc(N3CCN(c4ccccn4)CC3)c2c1C | x | -0.57
COc1cc(OC)c(C2C(C#N)=C(N)Oc3n[nH]c(-c4cccc([N+](=O)[O-])c4)c32)c(OC)c1 (centres undefined) | x | -0.61
O=C(c1ccccc1)C(Sc1nc2ccccc2[nH]1)c1ccccc1 (centres undefined) | 0.35 | 0.015
CCOC(=O)COc1ccc2c(c1)OC(C)(C)CC2=O | x | 12
CS(=O)(=O)n1c(SCc2ccc(C(F)(F)F)cc2)nc2ccccc21 | x | -0.055

(next part)
SMILES | AID504770 | Ba CapD inh
CS(=O)(=O)N(CC(=O)Oc1ccc2ccccc2c1)c1ccc(Cl)cc1 | x | -0.51
CCSc1nc2c(c(=O)[nH]c(=O)n2C)n1Cc1ccc(C)cc1 | -0.25 | 0.62
COc1ccc(-c2cc(=O)c3ccc(OC)cc3o2)cc1 | -0.5 | 54
COC(=O)c1sc(-c2ccc(Cl)cc2)cc1NC(=O)C(F)(F)F | 1.2 | 5.3
CCOc1ccc(S(=O)(=O)Nc2ccccc2C(=O)Nc2nn[nH]n2)cc1 | -0.2 | x
CCCCCSc1nnc2c3ccccc3n(C)c2n1 | x | 0.11
COc1ccc2cc(C#N)c(=S)[nH]c2c1 | -0.2 | x
O=C1CNC(=O)/C1=C\c1ccc(O)cc1 | -0.8 | -0.045
N#CCCn1c(SCc2csc(-c3ccccc3)n2)nc2ccccc21 | 0.25 | x
NC(CC(=O)O)c1ccc2c(c1)OCO2 (centres undefined) | -0.35 | 0.15
COc1cc(C=C2C(=O)NC(=O)NC2=O)ccc1Oc1ccc([N+](=O)[O-])cc1[N+](=O)[O-] | x | -1.5
CCN(CC)C(=S)C(=O)Nc1cc(C(F)(F)F)cc(C(F)(F)F)c1 | 0.7 | -0.81
CSc1n[nH]c(-c2ccc(Cl)cc2)c1SC(=O)N(C)C | 1.2 | -0.68
CCCS(=O)(=O)c1c(S(=O)(=O)CCC)c2ccccn2c1C(=O)N/N=C/c1ccc(N(C)C)cc1 | x | -0.24
CCN(CCCNc1nnc2c3ccccc3n(CC)c2n1)c1cccc(C)c1 | -1.1 | -0.24
CN1C(=C(C#N)C(=O)COc2ccc(C#N)cc2)N(C)c2ccccc21 | 0.3 | x
CC(C)(C)c1ccc(CCC(CC(=O)O)CC(=O)O)cc1 | 2 | 0.06
COc1ccc(Nc2nc(N3CCN(C)CC3)nc3ccccc23)c(OC)c1 | 0.4 | 0.6
COc1ccc(CNC(=O)c2c(-n3cccc3)sc3c2CCCC3)cc1 | 1.5 | x
Oc1ccc(-c2nc3sc(-c4ccc(O)cc4)nc3s2)cc1 | -0.95 | 24
O=[N+]([O-])c1ccc(OCc2c(F)cccc2Cl)cc1 | x | -0.99
Oc1ccccc1C=NCC1CCC(CN=Cc2ccccc2O)CC1 (centres undefined) | x | 0.045
N#Cc1ccc(COC(=O)Cn2c(-c3ccccc3)cc3ccccc32)cc1 | -0.5 | x
CCCC(c1nnnn1Cc1ccc(OC)cc1)N1CCC(C(N)=O)CC1 (centres undefined) | 1.1 | x
O=C(CN1C(=O)COc2ccccc21)N(Cc1ccccc1)Cc1ccccn1 | -0.2 | x
Remaining list, next part:
SMILES | AID504770 | Ba CapD inh
CN1CCN2c3ccccc3Cc3ccccc3C2C1 (centres undefined) | x | -0.39&4.1
Cc1cc(N)nn1C(=O)CSc1nc(NC2CCCCC2)c2ccccc2n1 | x | 14
FC(F)(F)c1cc(-c2ccccc2)nc(NC2CCCC2)n1 | x | 13
CCNS(=O)(=O)c1cccc2nonc12 | x | -0.49
Cc1nc2ccc(NS(=O)(=O)c3ccccc3C(F)(F)F)cc2o1 | -0.65 | 0.65
Cc1ccc(CN(C)Cc2cc(=O)oc3cc4c(cc23)CCC4)o1 | 0 | x
COC(=O)c1sc(NC(=O)c2ccccc2)c(C#N)c1C | 0.15 | 0.29
N/C(=N\OC(=O)CCN1C(=O)c2ccccc2C1=O)c1ccncc1 | -0.65 | -0.12
Brc1ccc(-c2nnc3sc(CN4CCC5(CC4)OCCO5)cn23)cc1 | -0.35 | 0.62
O=C(N/N=C/c1ccco1)C1c2ccccc2Oc2ccccc21 | 0.05 | x
CCN1C(=S)NC2c3cc(Br)ccc3OC1(C)C2C(=O)Nc1ccc(Cl)cc1 (centres undefined) | 0.1 | -0.005
Cc1ccc(S(=O)(=O)NCc2cn3ccccc3n2)c(C)c1 | 1 | x
Cc1ccc(C2OC3=C(C(=O)CC(C)(C)C3)C(N)=C2C#N)o1 (centres undefined) | -0.3 | -0.98
Cc1ccc(C2/C(=C(\O)c3ccc(Cl)cc3)C(=O)C(=O)N2CCCN2CCOCC2)cc1 (centres undefined) | x | 0.12
Cc1ccc(NC(=O)C2CCCN2S(=O)(=O)c2ccc3nc(-c4ccccc4)[nH]c3c2)cc1 (centres undefined) | 1.8 | 2.7
c1cncc(C2Nc3ccccc3-n3cccc32)c1 (centres undefined) | -0.4 | 17
Brc1cc(Br)cc(CSc2ccccn2)c1 | x | 0.035
COc1ccc(C2Nc3ccccc3C(=O)N2Cc2ccco2)cc1COc1ccc(Cl)cc1 (centres undefined) | x | 59
CN(Cc1cccc(Cl)c1)Cc1cc2c(cc1O)CCC2 | 0.25 | x
Cc1ccc(N2C(=O)C3C4c5ccccc5C(C=O)(c5ccccc54)C3C2=O)cc1Cl (centres undefined) | x | 0.7
O=[N+]([O-])c1ccc(-c2nc(NCc3ccccc3)c3ccccc3n2)cc1 | x | 0.13
CCn1c(NCc2ccccc2)nc2ccccc21 | 0.4 | x
COc1ccc(-n2c(=O)c3c4c(sc3n3c(SCc5ccccc5)nnc23)COC(C)(C)C4)cc1 | x | -0.11
COc1cc(CC(=O)OCC(=O)N2CCCC2=O)cc(OC)c1OC | 0.55 | x
CCOC(=O)c1cc2c(C)nccn2c1 | 0.3 | 74
New compounds follow.
SMILES | AID504770 | Ba CapD inh
C[n+]1ccn(-c2ccccc2C#N)c1 | -0.75 | -0.15
COC(=O)C(C)Sc1nc2c([nH]c3ccccc32)c(=O)n1-c1cc(C)cc(C)c1 (centres undefined) | 0.4 | 2.2
CCOC(=O)Cn1c(=NC(=O)c2ccco2)sc2cccc(F)c21 | 0.3 | x
Cc1cccc(NC(=O)C2CC(O)CN2C(=O)Oc2ccccc2)c1 (centres undefined) | x | 6.1
CC1(C)CC(=O)C2=C(C1)OC1=C(C(=O)CC(C)(C)C1)C2c1ccc(-c2ccc3c(c2)COC3=O)o1 | x | 15
CCOC(=O)c1c(NC(=O)CSc2nnc(CNC(=O)c3cccs3)n2Cc2ccccc2)sc2c1CCC2 | x | -0.26
C/C(=N\OCc1cccc(C(F)(F)F)c1)c1sc2ncnn2c1C | x | -0.66
O/N=C1/C2C3CC4C2/C(=N/O)C2C1C3C42 (centres undefined) | -0.4 | x
C=Cc1ccc(Cn2c(C(=O)O)c(CNCCc3ccc(SC)cc3)c3ccccc32)cc1 | 0.3 | 0.14
Cc1n[nH]c(C)c1S(=O)(=O)N1CCC(C(=O)OCc2ccc(C(C)(C)C)cc2)CC1 | -0.45 | x
O=C(O)CC(NC(=O)Cc1ccccc1)C(F)(F)F (centres undefined) | 0 | -0.36
O=S(=O)(c1cccc2nsnc12)N1CCc2ccccc21 | 0.35 | -0.19
COC(=O)CNC(=O)c1cn(-c2ccccc2)nc1-c1ccc(C)cc1 | -2.7 | 0.36
CCOc1cc(NC(=O)C2CC2)c(OCC)cc1NC(=O)CCn1nnc2ccccc21 | -1.2 | x

Full records as entered above. Values in the order: AID504770, Ba CapD inh
`CC1(C)CC(=O)C2=C(C1)OC1=C(C(=O)CC(C)(C)C1)C2c1ccc(-c2ccc3c(c2)COC3=O)o1` as listed: x, 15
`C[n+]1ccn(-c2ccccc2C#N)c1` as listed: -0.75, -0.15
`O/N=C1/C2C3CC4C2/C(=N/O)C2C1C3C42` (centres undefined) as listed: -0.4, x
`C=Cc1ccc(Cn2c(C(=O)O)c(CNCCc3ccc(SC)cc3)c3ccccc32)cc1` as listed: 0.3, 0.14
`C/C(=N\OCc1cccc(C(F)(F)F)c1)c1sc2ncnn2c1C` as listed: x, -0.66
